Hsc70: Hsc70 inhibitors, probe displacement, primary screen, biochemical, fluorescence polarization (AID 568) | displacement, % at 20 µM; hits with a dose series show IC50 in µM | Hsc70 fluorescence polarization, probe displacement; higher % means a stronger effect; strong numbers were not always called active | 83,000 tested, under 10 active | Heat shock cognate 71 kDa protein (Homo sapiens);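 active = displacement above 50% without optical interference and an IC50 on retest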;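 also: ATPase domain with a fluorescein-tagged ATP probe; 0% = vehicle and 100% = excess ADP; read after one hour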
MT1-MMP reporter: inhibitors of MT1-MMP promoter transcription, cell-based, luciferase reporter, luminescence (AID 618) | MT1-MMP promoter luciferase reporter cells, luminescence | calls from a first round at 10 µM; hits with a dose series show EC50 in µM | 87,000 tested, 0.62% active;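 active = over half of the reporter light lost at 10 µM or EC50 under 50 µM; inactive = the rest and hits that failed the dose series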;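 also: actives suppress MT1-MMP promoter-driven transcription so potencies describe inhibitors; HT1080 fibrosarcoma cells; overnight exposure; toxic or luciferase-blocking compounds were not removed from the actives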
WNV protease inh: inhibitors of WNV NS2B-NS3 protease, primary screen, biochemical, fluorogenic substrate; fluorogenic substrate Ex360/Em465; hits give low values; z-score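 (tested at a level between 10 and 100 µM)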; 65,000 tested, 0.18% active;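 active = z-score at -3 or under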;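 also: score is relative to mean and spread of the compound wells of a plate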
Target sequence (P06935 1371-1501 limits assumed): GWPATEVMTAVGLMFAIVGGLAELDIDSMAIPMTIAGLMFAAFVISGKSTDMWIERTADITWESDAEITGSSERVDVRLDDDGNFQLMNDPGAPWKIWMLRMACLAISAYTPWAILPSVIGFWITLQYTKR
Target sequence (P06935 1502-1679 limits assumed): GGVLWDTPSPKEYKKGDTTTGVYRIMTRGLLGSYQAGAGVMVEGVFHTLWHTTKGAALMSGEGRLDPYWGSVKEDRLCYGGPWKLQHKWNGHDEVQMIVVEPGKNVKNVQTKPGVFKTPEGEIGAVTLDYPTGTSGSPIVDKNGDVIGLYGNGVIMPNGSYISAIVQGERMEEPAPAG
* marks the source's active call; other numbers are inactive results; i = inactive; nt = not tested or not shown.

Order of results: Hsc70, MT1-MMP reporter, WNV protease inh
O=c1oc2ccccc2cc1NCc1ccccc1O
→ 7.7%, i, -0.26
CSC1=N/C(=C\c2ccc(C)o2)C(=O)S1
→ 2.5%, i, -1
Cc1cccc(-c2nc(CN3CCCC(C(=O)NC4CCCCC4)C3)c(C)o2)c1 (centres undefined)
→ -16%, i, -0.36
CN1CCN(C2=Nc3cc(Cl)ccc3Nc3ccccc32)CC1
→ 4.9%, i, 0.06
Cc1ccc(N2CC(c3nc4ccccc4[nH]3)CC2=O)c(C)c1 (centres undefined)
→ -1.5%, i, -0.07
CC1=NC(C(F)(F)F)(C(F)(F)F)C(C#N)=C(C)N1
→ -4.4%, i, 0.48
COc1nnc(-c2ccc(N3CCCCC3)c(NC(=O)C3CCCCC3)c2)c2ccccc12
→ -6.1%, i, nt
O=c1c2sc3nc(N4CCOCC4)c4c(c3c2ncn1Cc1ccco1)CCCC4
→ -8.1%, i, -0.83
CCOc1ccccc1Nc1ncnc2c1cnn2-c1ccccc1
→ -3.2%, i, 0.97
O=C(NCc1ccccn1)C1CCCN(S(=O)(=O)c2cccc3nsnc23)C1 (centres undefined)
→ -10%, i, -0.69
NS(=O)(=O)c1ccc(S(=O)(=O)N2CCCC2)cc1
→ -3.3%, i, nt
CC1=C(C(=O)OC(C)(C)C)C(c2ccco2)C(C#N)=C(N)O1 (centres undefined)
→ 1.9%, i, -0.41
CC(=O)N1CCC(C(=O)c2ccc(Cl)cc2)CC1
→ 4.2%, i, nt
Cc1ccc(CNC(=O)C2CCCN(S(=O)(=O)c3cnc[nH]3)C2)cc1 (centres undefined)
→ -0.3%, i, -0.04
Cc1ccc(-c2sc(C)nc2CC(=O)O)cc1
→ 3.2%, i, -1.1
COc1ccc(C(=O)C(CN2CCOCC2)c2ccccc2)cc1 (centres undefined)
→ 2.4%, i, nt
c1ccc(SCc2nc(-c3ccccn3)no2)cc1
→ -0.6%, i, 0.02
COC(=O)Cc1ccc(NC(=O)c2cccs2)cc1
→ -2.2%, i, 1.1
CCCCCCC(=O)Nc1cc2c(C)cc(=O)oc2cc1C
→ 5.1%, i, nt
COC(=O)c1ccc(COC(=O)c2c(C)nn(Cc3ccccc3Cl)c2Cl)o1
→ -8.9%, i, 0.37
Cc1ccc(N=C2NC(=O)CS2)c(C)c1
→ -3.1%, i, -0.28
Cc1cc(C)c(NC(=O)C2CCCCN2C)c(C)c1 (centres undefined)
→ 0.1%, i, nt
C=CCn1c(CNC(=O)CCC)nc2ccccc21
→ -0.9%, i, -1
CCOC(=O)Nc1ccc2c(C)cc(=O)oc2c1
→ -0.5%, i, 0.19
CNS(=O)(=O)c1cccc(C(=O)NCC(c2cccs2)N(C)C)c1 (centres undefined)
→ -1.1%, i, 0.45
COc1ccc(C(=O)N2CCN=C2SCc2cccnc2)cc1OC
→ 2.9%, i, -0.54
CCCCn1nnnc1NCc1ccc(OC)c(OC)c1OC
→ 1.2%, i, -0.46
O=C(CSc1nnc(-c2cccnc2)n1Cc1ccco1)c1ccc2ccccc2c1
→ -9.7%, i, 2.1
COc1ccc(-c2nnc(-c3ccc(N)cc3)o2)cc1
→ -4.4%, i, -0.96
O=C(C1COc2ccccc2O1)N1CCn2c(nc3ccccc32)C1 (centres undefined)
→ 5.6%, i, -1.1
COC(=O)c1cc(=O)c2ccc(OC)cc2o1
→ -4.4%, i, -0.65
Cn1nc(-c2ccc(Cl)cc2)c2cc(C(=O)N3CCCC3)sc21
→ -2.4%, i, -0.45
Cc1ccc(N=Cc2nc(-c3ccco3)oc2O)cc1
→ 6.2%, i, -0.65
COc1ccc(Cc2nnc(SC)[nH]c2=O)cc1OC
→ -1.0%, i, -0.06
CC1Cc2ccccc2N1C(=O)Cn1nnc(-c2ccccc2NC(=O)C2CCC2)n1 (centres undefined)
→ 7.3%, i, 0.1
CC(=O)c1ccc(N2C(=O)NC3(CCCCC3)C2=O)cc1
→ -0.1%, i, 0.01
Nc1nnc(COc2cccc(C(F)(F)F)c2)s1
→ 0.4%, i, 0.96
CC(C(=O)Nc1sccc1C(N)=O)N1C(=O)C2CC=CCC2C1=O (centres undefined)
→ -5.2%, i, 0.67
COc1ccc(OC)c(S(=O)(=O)Nc2ccc3oc4c(c3c2)C(=O)CCC4)c1
→ 1.2%, i, 0.37
COC(=O)CCC(=O)c1oc2ccc(Cl)cc2c1NC(=O)CCCN1C(=O)c2ccccc2C1=O
→ 3.2%, i, -0.33
CCOc1ccc(C(C#N)N2CCOCC2)cc1OC (centres undefined)
→ -4.5%, i, -1
COc1ccc(Nc2nc3ccccc3nc2-n2nc(C)cc2C)cc1
→ 14%, i, nt
CCOC(=O)CNC(=O)CSc1ncnc2c1cnn2-c1ccc(Cl)cc1
→ -1.3%, i, 2.3
Cc1nnc(NC(=O)c2ccc(C)c(S(=O)(=O)N3CCCCCC3)c2)s1
→ 9.3%, i, -1.5
COc1ccc2cc(C(=O)N3CCOCC3)sc(=O)c2c1OC
→ 1.6%, i, 1.9

Entries of single compounds, quoted from the list. Order of screens: Hsc70, MT1-MMP reporter, WNV protease inh
`COC(=O)CCC(=O)c1oc2ccc(Cl)cc2c1NC(=O)CCCN1C(=O)c2ccccc2C1=O` is entered as 3.2%, i, -0.33
`Cc1nnc(NC(=O)c2ccc(C)c(S(=O)(=O)N3CCCCCC3)c2)s1` is entered as 9.3%, i, -1.5
`CC1=NC(C(F)(F)F)(C(F)(F)F)C(C#N)=C(C)N1` is entered as -4.4%, i, 0.48
`COc1ccc(C(=O)C(CN2CCOCC2)c2ccccc2)cc1` (centres undefined) is entered as 2.4%, i, nt

(continued)
Order of results: Hsc70, MT1-MMP reporter, WNV protease inh
CCOc1cc(C(c2c(C)[nH][nH]c2=O)c2c(C)[nH][nH]c2=O)ccc1OS(=O)(=O)c1ccccc1
→ -2.2%, i, nt
CCNc1nc(OCCNC(C)=O)nc(N(C)C)n1
→ 6.0%, i, nt
COC(=O)c1[nH]c2cc(OC)ccc2c1NC(=O)CCN1CCN(Cc2ccc3c(c2)OCO3)CC1
→ -6.0%, i, 0.35
Cc1cccc(NC(=O)c2ccc(NS(=O)(=O)c3c(C)noc3C)cc2)c1
→ -5.0%, i, -0.7
CC1NC(=O)N(C)C2NC(=O)N(C)C(c3ccccc3)C12 (centres undefined)
→ -3.9%, i, -0.69
Cc1[nH]c2ccccc2c1NC(=O)CN1CCN(Cc2ccc3c(c2)OCO3)CC1
→ 0.7%, i, 0.08
CCOC(=O)c1sc(N)nc1-c1ccccc1
→ 0.4%, i, 0.02
CCc1ccc(OC)c(S(=O)(=O)NCCOc2ccccc2)c1
→ 5.1%, i, 0.55
Cc1ccccc1N1C(=O)C(Cl)=C(N2CCN(c3ccccc3)CC2)C1=O
→ -1.5%, i, -0.16
COc1cc(/C=N/NC(=O)CCc2c(C)n[nH]c2C)cc(OC)c1OC
→ 0.5%, i, nt
CC(C(=O)N(C)C)N(C#N)c1nc(N(C)C)nc(N(C)C)n1 (centres undefined)
→ -5.6%, i, 0.41
COc1ccc(Cl)cc1-n1c(=S)sc2c(=O)[nH]c(SCC(=O)NCC3CCCO3)nc21 (centres undefined)
→ 2.3%, i, -1
N#Cc1nc(-c2ccc(Cl)cc2)oc1NCCc1ccccn1
→ 1.7%, i, 0.43
Cc1cc(C)c2[nH]c(=O)c(C(c3nnnn3Cc3ccc4c(c3)OCO4)N3CCC(C)CC3)cc2c1 (centres undefined)
→ -2.2%, i, 1
CNC(=O)CSc1nc(N)c2c3c(sc2n1)CCC3
→ -1.2%, i, nt
Cc1ccc2nc(-c3ccccc3)c(NC(=O)c3ccco3)n2c1
→ 2.5%, i, nt
CCOc1ccccc1Oc1coc2cc(O)ccc2c1=O
→ -6.8%, i, 1.7
COC(=O)c1cnc2ccccc2n1
→ -5.1%, i, nt
COc1ccc2nc(NC(=O)C3CCCN(S(=O)(=O)c4cccs4)C3)sc2c1 (centres undefined)
→ -3.5%, i, -0.48
O=C(c1cnc2sccn2c1=O)N1CCCc2ccccc21
→ 5.4%, i, -0.82
CC[C@H]1OC(=O)C[C@@H](O)[C@H](C)[C@@H](O[C@@H]2O[C@H](C)C[C@H](N(C)C)[C@H]2O)[C@@H](CC=O)C[C@@H](C)C(=O)C=C[C@]2(C)O[C@H]2[C@@H]1C
→ 1.0%, i, -0.07
O=C(CCc1ccccc1)Nc1ccc(NC(=O)C2CC2)nc1
→ 0.5%, i, 2
CCCn1c(SCC(=O)N2c3ccccc3CC2C)nnc1-c1ccco1 (centres undefined)
→ -1.1%, i, nt
Cn1c(=O)c2c(n(C)c1=O)=NC1(CCCCC1)N=2
→ 9.4%, i, 0.2
CCCCS(=O)(=O)Nc1ccc(Cc2ccncc2)cc1
→ 6.2%, i, -0.43
O=C(c1nnc(-c2ccncc2)o1)c1ccccc1Cl
→ 1.8%, i, 0.9
CCCCn1c(N)c(N(CCC(C)C)C(=O)CSc2nnc(C)s2)c(=O)[nH]c1=O
→ 3.8%, i, -0.24
NC(CO)C(=O)NNCc1ccc(O)c(O)c1O (centres undefined)
→ 0.1%, i, 0.76
Cc1cccc2c(Cl)cc(=O)[nH]c12
→ -4.6%, i, nt
Cc1csc(SCC(=O)NC23CC4CC(CC(C4)C2)C3)n1
→ -0.4%, i, nt
N#C/C(=C\c1c(N2CCOCC2)nc2ccccn2c1=O)S(=O)(=O)c1ccccc1
→ 6.0%, i, -0.03
O=C(Nc1cccc2ncccc12)c1cc2ccccc2o1
→ 6.7%, i, -0.75
CN(C)c1oc(-c2ccccc2Cl)nc1C#N
→ -6.0%, i, 0.15
COc1ccccc1NC(=O)CCn1c(=O)sc2ccccc21
→ -0.4%, i, -0.08
COc1ccc(NS(=O)(=O)c2ccc(NS(C)(=O)=O)cc2)cc1
→ 0.4%, i, 1.5
COc1cc(C(=O)N(Cc2ccccn2)CC2CCCO2)cc(OC)c1OC (centres undefined)
→ -3.2%, i, -0.91
Cc1ccc(NC(=O)CN(C)C(=O)CSc2n[nH]c(N)n2)cc1
→ 0.7%, i, nt
CCOC(=O)C1CCCN(S(=O)(=O)c2cccc3cccnc23)C1 (centres undefined)
→ 1.1%, i, 0.63
COc1ccc(N2CCN(c3nc(Cl)nc(N4CCOCC4)n3)CC2)cc1
→ 8.2%, i, nt
Cc1nn(CC#N)c(=O)n1-c1cccc(F)c1
→ 2.4%, i, nt
Cc1nonc1NCn1nnc2ccccc21
→ -1.1%, i, nt
CCOc1ccccc1C(=O)NCC(=O)OCC(=O)c1ccc2c(c1)OCCO2
→ 0.2%, i, -1.2
COc1ccc(CC(NC(C)=O)C(=O)NC2CCN(C(=O)NCc3ccccc3)CC2)cc1OC (centres undefined)
→ 1.7%, i, -0.98
CC(C)(C)C1CCc2nc(NC(=O)Cc3cn4ccsc4n3)sc2C1 (centres undefined)
→ 2.8%, i, 0.17
COc1ccc(NC(=O)C(c2ccc(OC)cc2)N(C)C(=O)c2cnccn2)cc1 (centres undefined)
→ -14%, i, 1.1
COC(=O)c1[nH]c2ccc(Br)cc2c1NC(=O)CN1CCCc2ccccc21
→ 3.6%, i, nt
COc1ccc(S(=O)(=O)Cc2ccc(C(=O)NCc3ccc(F)cc3)o2)cc1
→ -0.1%, i, -0.29
CCOC(=O)c1c(NC(=O)CSc2nnnn2-c2ccccc2)sc2c1CCC(C)C2 (centres undefined)
→ 2.1%, i, nt
COCCn1c(CN2CCN(c3cccc(Cl)c3)CC2)nc2c1c(=O)n(C)c(=O)n2C
→ 0.3%, i, 0.18
CCn1c(CCNC(=O)c2cccs2)nnc1SCC(=O)Nc1cccc(Cl)c1
→ 0.1%, i, nt
CN(C)S(=O)(=O)c1ccc2c(c1)c(=O)c(C(=O)N1CCN(c3ccccn3)CC1)cn2C
→ 0.9%, i, 1.5
Cc1nc(NC(=O)CCC(=O)O)sc1C(=O)N(C)C
→ 1.8%, i, 0.42
O=C(Nc1c(C(=O)N2CCCC2)cnn1-c1ccccc1)c1cccc(F)c1
→ 5.6%, i, -0.96
O=C(c1cccs1)N(CCO)Cc1cc2cc3c(cc2[nH]c1=O)OCCO3
→ 0.3%, i, 1.1
Cc1ccc(-c2ccc(CCC(=O)O)o2)cc1
→ 5.1%, i, nt
CCc1ccc(NC(=O)N(Cc2cccnc2)Cc2ccco2)cc1
→ 3.7%, i, nt
Nc1nnc(SCC(=O)N2CCN(c3ccccc3)CC2)s1
→ -0.6%, i, 0.55
CCCc1cc(=O)[nH]c(SCC(=O)c2ccc(S(=O)(=O)N3CCCC3)cc2)n1
→ 4.7%, i, -0.53
O=C(NCc1ccccn1)c1cn(Cc2ccccc2)nn1
→ -4.7%, i, 1.3
C=C(C)c1ccc(C(C)(C)NC(=O)N2CCN(C)CC2)cc1
→ -2.1%, i, -0.44

Continued.
Order of results: Hsc70, MT1-MMP reporter, WNV protease inh
Cc1ccc2cc3c(NC(=O)c4cccnc4)nn(C)c3nc2c1
→ -5.6%, i, -0.3
O=C(O)CCCCC1SCC2NC(=O)NC21 (centres undefined)
→ 2.6%, i, nt
Cc1cccc(OCC2=NS(=O)(=O)c3ccccc3N2)c1
→ -8.3%, i, -0.67
CC(C)c1nnc(NC(=O)CC(=O)Nc2ccccc2C(=O)O)s1
→ -0.9%, i, 0.62
Cn1cc(Br)c(C(=O)Nc2sc3c(c2C(N)=O)CCC3)n1
→ 0.8%, i, nt

Outcome played no part in choosing rows, and some 0.87% of all compounds hit somewhere here.
